H5N1 antiviral: antiviral screen in MDCK cells, H5N1 avian flu | cytopathic effect, luminescence, 72 h; hits give high values; no value below 0 was filed and about half of the inactive calls have no number; reference of the scale not given here | inhibition, % at 50 µM | 96,000 tested, 0.07% active | AID 740; in the data active means inhibition above about 25%
An asterisk follows results filed as active. The list is partial, so the mix of outcomes need not match the whole.

What do the screens show for `COCCCNC(=O)CC(NS(=O)(=O)c1ccc(Cl)cc1)c1ccc(OC)cc1` (stereo not drawn)?
H5N1 antiviral: 1.1

Results for COCCN(Cc1cc2cccc(C)c2[nH]c1=O)C(=O)c1ccccc1 ?
H5N1 antiviral: 0.6

What do the screens show for `Cc1ncc(S(=O)(=O)c2ccc(Cl)cc2)c(-c2ccccc2)n1`?
H5N1 antiviral: 0.4

How did Cc1ccc(C(=O)CSc2nsc(C)c2C#N)cc1 do in these assays?
H5N1 antiviral: 0.2

What do the screens show for `COC(=O)CCc1c(C)[nH]c(=S)[nH]c1=O`?
H5N1 antiviral: inactive

Results for C=CCn1c(CNc2ccccc2)nnc1SCC(=O)N/N=C/c1ccccc1O ?
H5N1 antiviral: inactive

What do the screens show for `CC(=O)N1CCN(c2ccc(N=Cc3c(O)n(-c4ccc(Cl)cc4)c(=O)[nH]c3=O)cc2)CC1`?
H5N1 antiviral: inactive

What do the screens show for `CSCCC(NC(=O)c1ccoc1C)C(=O)O` (stereo not drawn)?
H5N1 antiviral: inactive

What do the screens show for `Cc1ccc(CNC(=O)CCc2ccc(S(=O)(=O)NC3CCCCC3)cc2)cc1`?
H5N1 antiviral: inactive

Results for O=C(Nc1ccccc1)c1ccc(F)c(S(=O)(=O)N2CCOCC2)c1 ?
H5N1 antiviral: 0.8

What do the screens show for `COc1cc(-c2nnc(-c3ccco3)o2)ccc1OCc1ccccc1`?
H5N1 antiviral: 1.6

What do the screens show for `CC(C)(C)c1ccc(S(=O)(=O)CCc2ccccn2)cc1`?
H5N1 antiviral: 0.3

How did Clc1ccccc1-c1nn2c(-c3ccncc3)nnc2s1 do in these assays?
H5N1 antiviral: 1.4

Results for Cc1ccc(Cn2c(=N)c(C(=O)NCc3ccco3)cc3c(=O)n4ccccc4nc32)cc1 ?
H5N1 antiviral: 6.8

Results for COCCCNC(=O)CC(NS(=O)(=O)c1ccc(F)cc1)c1ccc(OC)cc1 (stereo not drawn) ?
H5N1 antiviral: 0.1

What do the screens show for `OCc1ccc(O)c2ncccc12`?
H5N1 antiviral: 5.2

What do the screens show for `Cc1ccc(NC(=O)COC(=O)c2ccn(C)n2)cc1`?
H5N1 antiviral: 1.5

Results for CCC1(COC(=O)Nc2cccc(Cl)c2)COC1 ?
H5N1 antiviral: inactive

How did COC(=O)COc1ccc(S(=O)(=O)Nc2ccc3c(c2)OCO3)cc1Cl do in these assays?
H5N1 antiviral: 0.3

How did O=C(OCCn1cncn1)c1cc2ccccc2oc1=O do in these assays?
H5N1 antiviral: inactive

What do the screens show for `Cc1ccccc1NC(=O)NCC1CCCO1` (stereo not drawn)?
H5N1 antiviral: inactive

Results for C/C(Cl)=C/CSc1nn2c(=O)c3ccccc3nc2s1 ?
H5N1 antiviral: 1.1

Results for Cc1c(OCc2ccccc2)c(=O)ccn1Cc1ccc(Cl)cc1 ?
H5N1 antiviral: 0.5

What do the screens show for `CCCCn1c(SCC(=O)NCc2ccccc2)nc2ccc(N3CCOCC3)cc2c1=O`?
H5N1 antiviral: inactive

Results for CCCCCc1ccc(S(=O)(=O)NCCc2ccncc2)cc1 ?
H5N1 antiviral: 1.2

What do the screens show for `Cc1ccccc1CS(=O)(=O)CCC(=O)NCc1ccccn1`?
H5N1 antiviral: 0.3

Results for COc1ccccc1-c1cc(C(F)(F)F)n2ncc(S(=O)(=O)c3ccccc3)c2n1 ?
H5N1 antiviral: 0.4

What do the screens show for `CCC(=O)NNc1cc(=O)c2c(=O)n(C)c(=O)n(C)c2[nH]1`?
H5N1 antiviral: 0.2

What do the screens show for `O=C1c2ccccc2C(Nc2ccc(-c3nc4ccccc4[nH]3)cc2)N1Cc1ccco1` (stereo not drawn)?
H5N1 antiviral: inactive

What do the screens show for `COc1ccc(OC(C)C(=O)N2CCOCC2)cc1` (stereo not drawn)?
H5N1 antiviral: inactive

Molecules above with two or more sulfur atoms (two):
How did Cc1ccc(C(=O)CSc2nsc(C)c2C#N)cc1 do in these assays?
H5N1 antiviral: 0.2

Results for C/C(Cl)=C/CSc1nn2c(=O)c3ccccc3nc2s1 ?
H5N1 antiviral: 1.1

New compounds follow:
How did CCCCNC(=O)Nc1ccc(C(O)(C(=O)OCC)C(F)(F)F)cc1 (stereo not drawn) do in these assays?
H5N1 antiviral: 0.2

How did CCCC(=O)Nc1ccccc1-c1nnn(CC(=O)Nc2ccc(OCC)cc2)n1 do in these assays?
H5N1 antiviral: 0.9

Results for Cc1ccc2cc(CN(C(=O)c3ccncc3)C(C)C)c(=O)[nH]c2c1 ?
H5N1 antiviral: inactive

What do the screens show for `O=c1c2c(nc3cc(-c4ccc(F)cc4)[nH]n13)CCCC2`?
H5N1 antiviral: 0.3

How did COc1cc2c(cc1OC)C(C)N(C(=O)Cn1ncc3c1-c1ccccc1OC3)CC2 (stereo not drawn) do in these assays?
H5N1 antiviral: 1.8

How did COC(=O)c1cn(NC(=O)c2cc(OC)cc(OC)c2)c(=O)c2ccccc12 do in these assays?
H5N1 antiviral: inactive

What do the screens show for `CS(=O)(=O)N1CCN(c2ccc(C(=O)NC3C4CC5CC(C4)CC3C5)cc2[N+](=O)[O-])CC1` (stereo not drawn)?
H5N1 antiviral: 3.3

What do the screens show for `O=C(CN1C(=O)CSC1=O)Nc1ccc2c(c1)OCCO2`?
H5N1 antiviral: inactive

How did COc1ccc(NC(=O)N2CC(C)OC(C)C2)cc1OC (stereo not drawn) do in these assays?
H5N1 antiviral: 1.2

How did CCOc1ccc2nc(NC(=O)CS(=O)(=O)c3ccc(C)cc3)sc2c1 do in these assays?
H5N1 antiviral: inactive

Results for COc1ccc(-c2ccc(SCC(=O)Nc3cc(C)on3)nn2)cc1OC ?
H5N1 antiviral: inactive

How did COc1cc(N)c(Cl)cc1NC(=O)c1ccccc1 do in these assays?
H5N1 antiviral: inactive

How did Cc1csc(NC(=O)CSc2nc3ccccc3c(=O)[nH]2)n1 do in these assays?
H5N1 antiviral: 0.5

What do the screens show for `Cc1cc(C)nc(N2N=C(C(C)(C)C)CC2=O)n1`?
H5N1 antiviral: inactive

What do the screens show for `CCCn1nc2cc(C(=O)NCc3ccc(OC(F)(F)F)cc3)ccc2c1OCC`?
H5N1 antiviral: 1.5

What do the screens show for `CN(C)c1cc(N)c2c(n1)CCC2` (tested in a mixture with another compound)?
H5N1 antiviral: 0.1

Results for COc1cc(OC)cc(C(=O)NCCN2CCOCC2)c1 ?
H5N1 antiviral: inactive

How did CC(=O)NNC(=O)CCC(=O)Nc1ccccc1 do in these assays?
H5N1 antiviral: inactive

Results for O=C(COc1ccc(Cl)cc1)Nc1ccc2oc(-c3ccncc3)nc2c1 ?
H5N1 antiviral: inactive

What do the screens show for `O=S(=O)(NC1=NCCCCCC1)c1cccs1`?
H5N1 antiviral: inactive

Results for O=c1c2cc(Br)cc(Br)c2oc2nc3n(c(=O)c12)CCCS3 ?
H5N1 antiviral: 1.0

Results for COC(=O)Cc1ccc(NC(=O)c2ccc(Br)o2)cc1 ?
H5N1 antiviral: inactive

Results for O=C(/C=C/c1ccccc1)N1CCC(Cc2ccccc2)CC1 ?
H5N1 antiviral: 0.8

What do the screens show for `O=C(NC1CCCc2ccccc21)c1ccccc1Br` (stereo not drawn)?
H5N1 antiviral: 0.1

Results for CC1(C)CC(=O)c2sc(NC(=O)CCS(=O)(=O)c3ccccc3)nc2C1 ?
H5N1 antiviral: 1.9

Results for Cc1cccn2c(=O)c(/C=N/O)c(N3CCCCC3)nc12 ?
H5N1 antiviral: 1.3

How did CCOC(=O)c1ccc(NC(=O)CNC(=O)C23CC4CC(CC(C4)C2)C3)cc1 do in these assays?
H5N1 antiviral: 1.2

Results for CN(Cc1ccccc1)C(=O)Cn1c(=O)oc2cc(S(=O)(=O)N3CCCC3)ccc21 ?
H5N1 antiviral: inactive

How did N#Cc1nc(-c2cccs2)oc1N1CCN(c2ccccc2)CC1 do in these assays?
H5N1 antiviral: 1.0

Results for COc1ccc(NC(=O)CCN2CCC(C)CC2)cc1 ?
H5N1 antiviral: inactive

Looked up one by one from the list above (seven):
Results for COC(=O)Cc1ccc(NC(=O)c2ccc(Br)o2)cc1 ?
H5N1 antiviral: inactive

How did N#Cc1nc(-c2cccs2)oc1N1CCN(c2ccccc2)CC1 do in these assays?
H5N1 antiviral: 1.0

Results for O=C(COc1ccc(Cl)cc1)Nc1ccc2oc(-c3ccncc3)nc2c1 ?
H5N1 antiviral: inactive

How did CC(=O)NNC(=O)CCC(=O)Nc1ccccc1 do in these assays?
H5N1 antiviral: inactive

Results for O=c1c2cc(Br)cc(Br)c2oc2nc3n(c(=O)c12)CCCS3 ?
H5N1 antiviral: 1.0

Results for CN(Cc1ccccc1)C(=O)Cn1c(=O)oc2cc(S(=O)(=O)N3CCCC3)ccc21 ?
H5N1 antiviral: inactive

What do the screens show for `O=C(NC1CCCc2ccccc21)c1ccccc1Br` (stereo not drawn)?
H5N1 antiviral: 0.1

(cont.)
Results for Cc1ccc(N(C(C)C(=O)Nc2ccccc2C(=O)N2CCOCC2)S(C)(=O)=O)cc1C (stereo not drawn) ?
H5N1 antiviral: 0.1

What do the screens show for `O=S(=O)(NCCSc1nc2ccccc2o1)c1ccccc1`?
H5N1 antiviral: inactive

What do the screens show for `CCOc1ccc(N(CC(N)=O)S(=O)(=O)c2ccc(F)cc2)cc1`?
H5N1 antiviral: inactive

What do the screens show for `CCC(=O)N=C1SC2CS(=O)(=O)CC2N1c1cccc(OC)c1` (stereo not drawn)?
H5N1 antiviral: 0.3

Results for COc1ccc2cc(CN(Cc3cccnc3)Cc3nnnn3Cc3ccccc3)c(=O)[nH]c2c1 ?
H5N1 antiviral: 3.8

What do the screens show for `CC(C)(C)NS(=O)(=O)CC12CCC(CC1=O)C2(C)C` (stereo not drawn)?
H5N1 antiviral: 0.5

What do the screens show for `Cc1cccc(NC(=O)N2CCC(c3nc4ccccc4o3)CC2)c1`?
H5N1 antiviral: inactive

What do the screens show for `CCOC(=O)c1c(NC(=O)c2ccoc2C)sc(C(=O)N(C)C)c1C`?
H5N1 antiviral: 0.7

How did CN(C)/C=N/C(=S)Nc1ccc(F)cc1 do in these assays?
H5N1 antiviral: 1.0

Results for CC(C)(C)C(=O)Oc1cc(N)n(S(=O)(=O)c2ccccc2)n1 ?
H5N1 antiviral: 0.4

Results for COc1ccc(CCNC(=O)c2nnn(CC(=O)Nc3ccccc3C)c2N)cc1OC ?
H5N1 antiviral: inactive

Results for O=C1C2C3C=CC(C3)C2C(=O)N1CCc1ccccc1 (stereo not drawn) ?
H5N1 antiviral: 0.6

Results for CC1(c2ccc(Cl)cc2)NC(=O)N(CC(=O)NC(=O)NCc2ccco2)C1=O (stereo not drawn) ?
H5N1 antiviral: inactive

Results for COc1ccc(C(=O)C[n+]2ccc3c(c2)nc(-c2ccc(OC)cc2OC)n3C)cc1 ?
H5N1 antiviral: inactive

Results for COc1cc(C(=O)O/N=C2/C=CC(=O)C(C)=C2C)cc(OC)c1OC ?
H5N1 antiviral: inactive

Results for O=S(=O)(c1ccc2oc3ccc(S(=O)(=O)N4CCCCC4)cc3c2c1)N1CCCCC1 ?
H5N1 antiviral: inactive

Results for COc1ccc(-c2c(NC(=O)c3ccco3)n(C)c3ccccc3c2=O)cc1 ?
H5N1 antiviral: inactive

Results for CCCCn1c(=NC(=O)c2ccc3c(c2)OCO3)c(C#N)cc2c(=O)n3cccc(C)c3nc21 ?
H5N1 antiviral: 1.8

What do the screens show for `C/C(=N\NS(=O)(=O)c1ccc(C)cc1)c1ccc(Br)s1`?
H5N1 antiviral: 0.8

What do the screens show for `Cc1ccccc1Cn1c([N+](=O)[O-])cnc1C`?
H5N1 antiviral: 0.6

What do the screens show for `O=C(CSc1nnc(Cc2cccs2)n1CCc1ccccc1)N1CCCc2ccccc21`?
H5N1 antiviral: inactive

Results for c1ccc(CNc2c3c(nc4ncnn24)CCCC3)nc1 ?
H5N1 antiviral: 1.4

How did COc1ccc(N(CC(=O)Nc2cc(C)on2)S(=O)(=O)c2cc(C)ccc2C)cc1 do in these assays?
H5N1 antiviral: inactive

How did O=C(C#Cc1ccccc1)c1ccc([N+](=O)[O-])cc1 do in these assays?
H5N1 antiviral: 1.3

Results for O=C1NC(=O)C(CC(=O)N(c2ccccc2)C2(C(=O)NC3CCCC3)CCCCC2)N1 (stereo not drawn) ?
H5N1 antiviral: 1.7

Results for CC1(C)CC(=O)C2=C(C1)OC(N)=C(C#N)C2C#Cc1ccccc1 (stereo not drawn) ?
H5N1 antiviral: 1.9

What do the screens show for `CC(=O)Nc1cccc(-c2nnc(SCC(=O)N3CCCCC3)n2C)c1`?
H5N1 antiviral: inactive

Results for COc1ccc(C(=O)Nc2ccc(Cl)cc2C(=O)NCCO)cc1 ?
H5N1 antiviral: 0.0

What do the screens show for `CCn1c(SCC(=O)c2ccc(C)cc2)nnc1-c1ccncc1`?
H5N1 antiviral: inactive

Results for CC(=O)Nc1ccc(OCC(=O)c2cc(C)ccc2C)cc1 ?
H5N1 antiviral: 3.2

Results for CCN(CC)c1ccc(N=Cc2c(O)n(-c3cc(OC)ccc3OC)c(=O)[nH]c2=O)cc1 ?
H5N1 antiviral: inactive

Results for Cc1ccc(S(=O)(=O)N2CCC(C(=O)N[C@@H](C)C(=O)NCC3CCCO3)CC2)cc1 (stereo partly drawn) ?
H5N1 antiviral: inactive

How did COc1ccc(-c2noc(CCN3C(=O)c4ccccc4C3=O)n2)cc1OC do in these assays?
H5N1 antiviral: 0.1

What do the screens show for `CCc1ccccc1N1CC23C=CC(O2)C(C(=O)OC)C3C1=O` (stereo not drawn)?
H5N1 antiviral: inactive

Results for O=C(NCc1cccs1)c1cc2c(s1)CS(=O)(=O)C2 ?
H5N1 antiviral: 2.5

Results for CCC(=O)Nc1cccc(NC(=O)c2ccc3c(c2)OCCO3)c1 ?
H5N1 antiviral: 0.1

What do the screens show for `O=S(=O)(c1ccccc1)n1nc(-c2ccccc2)nc1NCc1ccco1`?
H5N1 antiviral: 1.3

Results for COc1ccc(OC)c(NC(=O)C(=O)/C=C(\O)c2cc(OC)ccc2OC)c1 ?
H5N1 antiviral: inactive
